Insulin prom inh = TRM-6 insulin promoter activity inhibition; TRM-6 cells (human fetal islet line), insulin promoter-eGFP reporter, imaging; reporter expression induced with tamoxifen; inhibition, % at 2 µM; actives 0.9% (n = 130,000);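 active = inhibition above the mean plus 3 SD, with well images judged a real hit on visual review, cut at about 60% in these data, passing the limit was not always enough; inconclusive = inhibition over the cutoff but images rejected on review; inactive = inhibition not above the cutoff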
PKD1 kinase inh = inhibitors of human PKD1 kinase; actives 0.056% (n = 200,000); Q15139; inhibition, %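 (about 10 µM by stock and volumes)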; PKD1 kinase fluorescence polarization assay;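 active = inhibition of 50% or more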;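 also: controls were vehicle for no effect and a reference inhibitor for full effect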
GALR2 agonist = activates the human galanin receptor 2; activation, %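 (tested at 5 µM)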; actives 0.48% (n = 140,000); O43603; GALR2-expressing cells, agonist activation read-out;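 active = above mean plus 3 SD of all compounds, about 5% in these data, not always enough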;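 also: 0% = vehicle buffer wells and 100% = reference agonist at full effect; tested in CHO reporter cells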
Target sequence (O43603 whole entry, looked up): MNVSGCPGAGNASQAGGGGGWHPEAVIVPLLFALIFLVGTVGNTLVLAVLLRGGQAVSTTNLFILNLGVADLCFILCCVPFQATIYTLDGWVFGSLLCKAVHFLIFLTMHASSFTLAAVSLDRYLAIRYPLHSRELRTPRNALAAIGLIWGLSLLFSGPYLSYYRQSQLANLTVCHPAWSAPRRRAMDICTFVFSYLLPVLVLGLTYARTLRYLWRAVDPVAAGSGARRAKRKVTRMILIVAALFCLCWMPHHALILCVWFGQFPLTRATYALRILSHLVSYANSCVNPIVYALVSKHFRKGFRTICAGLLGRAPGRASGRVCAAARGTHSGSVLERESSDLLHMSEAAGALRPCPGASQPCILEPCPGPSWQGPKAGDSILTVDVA
RGS16-Gao = modulates binding between human RGS16 and Galphao. bead-based flow cytometry RGS16-Galphao binding, fluorescence; actives lie on both sides. binding response (% of control), % at 10 µM. actives 0.38% (n = 220,000). AID 1441;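 active = below 25% or above 175%, edge rows of some plates excepted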;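 also: Galphao activated by GDP with aluminum fluoride before binding; 100% = wells without compound and 0% = beads without RGS; some results beyond the cut were filed as inactive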
Target sequence (O15492 whole entry, looked up): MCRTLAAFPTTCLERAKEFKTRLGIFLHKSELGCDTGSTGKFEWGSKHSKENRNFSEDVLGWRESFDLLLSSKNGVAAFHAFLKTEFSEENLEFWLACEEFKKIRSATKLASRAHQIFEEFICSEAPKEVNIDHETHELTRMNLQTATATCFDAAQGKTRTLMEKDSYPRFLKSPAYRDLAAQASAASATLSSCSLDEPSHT
Target sequence (P09471 whole entry, looked up): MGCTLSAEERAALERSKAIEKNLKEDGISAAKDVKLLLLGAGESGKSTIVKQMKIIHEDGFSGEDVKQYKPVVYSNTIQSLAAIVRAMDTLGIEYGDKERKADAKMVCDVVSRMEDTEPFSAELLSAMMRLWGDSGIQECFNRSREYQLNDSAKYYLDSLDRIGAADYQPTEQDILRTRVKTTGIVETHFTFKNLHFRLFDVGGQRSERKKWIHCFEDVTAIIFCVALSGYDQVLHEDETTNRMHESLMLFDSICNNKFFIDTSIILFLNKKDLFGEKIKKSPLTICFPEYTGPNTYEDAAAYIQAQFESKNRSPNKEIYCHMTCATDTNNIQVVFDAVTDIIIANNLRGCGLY
HSV augment = increases HSV replication in cells; HSV replication augmentation in cells, fold increase; maximum fold increase; actives 0.005% (n = 220,000); AID 1956;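 active = peak rise of 1.5-fold or more in the series; inconclusive = self-fluorescent or not available for retest; tested in PC3 cells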;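 also: first round at 10 µM; read as green reporter fluorescence; hits show the peak of a series up to 25 µM; 1 = signal of infected wells without compound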
Insulin prom inh cell count = also measured in Insulin prom inh; calls as there; normalized cell count, %; measured here: cell count, toxicity; reference of the scale not given here;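 cells exposed to compound for 48 h; stained nuclei by imaging scaled within each plate; lower means fewer cells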
HSV augment primary fold = recorded beside HSV augment, whose call it bears; fold increase; compound at 10 µM; measured here: primary screen fold increase 10 uM; tested in PC3 cells;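 GFP signal in the first replicate; 1 = infected wells without compound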
Active calls of the source: *; i = inactive; ? = inconclusive; / = not tested or not shown.

entry | Structure | Insulin prom inh | Insulin prom inh cell count | PKD1 kinase inh | GALR2 agonist | RGS16-Gao | HSV augment | HSV augment primary fold
1 | ClC1(Cl)CC1CSc1nc2ccccc2[nH]1 (configuration not stated) | 54.5 | 79.6 | 6.0 | / | 113.3 | i | 0.93
2 | CCc1c(O)nc(SCC(=O)NC(C)(C)C)n(-c2ccccc2)c1=O | -7.0 | 40.0 | -5.6 | -2.6 | 106.1 | i | 1.12
3 | O=C(NN1C(=O)C2C3C=CC(C3)[C@H]2C1=O)c1cccnc1 (some centres not stated) | / | / | 6.7 | -1.1 | 99.4 | i | 0.96
4 | C=C(C)C(=O)Nc1cccc(C2=NOC3(C2)C[C@H](C(N)=O)N(C(=O)C(c2ccccc2)c2ccccc2)C3)c1 (some centres not stated) | / | / | / | / | 98.7 | i | 0.95
5 | CC(C)N(C(=O)CSc1nn2c(=O)c(C(C)(C)C)nnc2s1)c1ccccc1 | / | / | 2.4 | -1.3 | 97.5 | i | 0.97
6 | Cc1nnc(SCc2nnc(-c3ccccc3Br)o2)s1 | / | / | -4.4 | / | 101.8 | i | 1.02
7 | Cc1nn(C)c(Oc2ccc(Cl)cc2)c1C=O | / | / | 0.0 | -2.0 | 104.8 | i | 0.79
8 | COc1ccc(NC(=S)N2CCN(C(c3ccccc3)c3ccccc3)CC2)c(OC)c1 | / | / | 3.9 | / | 100.9 | i | 1.04
9 | CCNC(=O)COc1cc(C)c(Br)c(C)c1 | / | / | -3.1 | / | 95.1 | i | 0.94
10 | Cn1c(C(=O)N2CCN(Cc3ccccc3)CC2)cc2c(=O)n(C)c3ccccc3c21 | / | / | 11.1 | -1.8 | 97.0 | i | 1.03
11 | CCOc1ccc(N2CC(C(=O)Nc3cccc(S(=O)(=O)N4CCCCC4)c3)CC2=O)cc1 (configuration not stated) | -53.3 | 126.2 | 0.7 | / | 103.8 | i | 1
12 | Cc1cc(NCc2ccccc2Cl)n2nnnc2n1 | 0.0 | 67.4 | -6.2 | -0.6 | 101.5 | i | 1.03
13 | COc1ccc(-n2c(C(C)(C)C)csc2=Nc2c(C)n(C)n(-c3ccccc3)c2=O)cc1 | 23.1 | 148.5 | 15.6 | -1.3 | 110.5 | i | 0.89
14 | CCC(=O)N(Cc1cc2c(C)cc(C)cc2[nH]c1=O)C1CCCCC1 | -18.2 | 131.5 | 4.4 | 2.0 | 97.0 | i | 0.83
15 | COc1ccc2cc[nH]c2c1 | 50.0 | 143.3 | -4.2 | / | 98.5 | i | 0.76
16 | Cc1ccc2c(c1)c1nnc(SCC(=O)Nc3cccc(Cl)c3C)nc1n2CC(=O)O | 5.6 | 66.5 | -6.1 | / | 78.3 | i | 0.97
17 | CN1C(=O)/C(=C/C=C2\SCCN2C)N(C)C1=S | 88.9* | 83.3* | 1.9 | / | 105.1 | i | 1.01
18 | CCOc1cc(N2CCOCC2)c(OCC)cc1NC(=O)CN1CCN(Cc2ccc3c(c2)OCO3)CC1 | / | / | -0.1 | / | 101.6 | i | 0.83
19 | Clc1ccc(Nc2nc(NCCN3CCOCC3)nc(N3CCOCC3)n2)cc1 | / | / | -2.0 | -0.6 | 114.6 | i | 0.76
20 | Cc1cc(C)nc(-n2ncc3c2CC(C)CC3=O)n1 (configuration not stated) | / | / | / | / | 102.0 | i | 1.11
21 | Cc1cc(=O)[nH]c(=S)[nH]1 | 14.3 | 97.1 | -5.9 | 0.2 | 106.7 | i | 0.66
22 | NC(=O)C1CCN(CC(=O)Nc2cc(Cl)ccc2Oc2ccccc2)CC1 | -33.3 | 64.2 | -1.9 | / | 136.5 | i | 0.9
23 | Cc1ccc(S(=O)(=O)NCC(=O)OCc2csc(-c3ccccc3)n2)cc1 | -11.1 | 115.1 | -8.7 | -0.2 | 100.7 | i | 0.92
24 | CC1CCN(c2nc3c(c(=O)[nH]c(=O)n3C)n2Cc2ccccc2Cl)CC1 | / | / | -3.5 | -3.2 | 104.9 | i | 0.94
25 | CC(C)C(NC(=O)c1ccc(Br)cc1)C(=O)NC1=NCCS1 (configuration not stated) | / | / | -3.2 | / | 93.0 | i | 1.08
26 | COc1cccc2cc(C(C)N(CCCN3CCOCC3)C(=S)Nc3ccc(C)cc3)oc12 (configuration not stated) | 5.9 | 154.3 | -2.1 | / | 104.5 | i | 0.99
27 | O=C(NC1CCCC1)C(c1ccncc1)N(Cc1ccccc1)C(=O)Cc1cccs1 (configuration not stated) | 13.3 | 112.8 | 5.8 | -2.0 | 97.1 | i | 1.34
28 | Cc1ccc(S(=O)(=O)Nc2c(C)ccc3nsnc23)cc1 | 13.3 | 126.2 | -7.5 | -2.9 | 108.9 | i | 0.91
29 | Oc1[nH]c2ccccc2c1OCc1ccncc1 | / | / | 18.2 | -2.8 | 100.5 | i | 1.16
30 | Cc1cccc(Nc2nnc(SCC(=O)Nc3ncc(C(F)(F)F)cc3Cl)s2)c1C | / | / | 3.9 | -2.2 | 93.1 | i | 1.2
31 | O=C1CCn2nc(-c3ccc(Cl)cc3)cc2N1 | / | / | -8.5 | -2.1 | 105.1 | i | 1.02
32 | CCn1c(CCCNC(=O)c2cccs2)nc2ccccc21 | / | / | -17.1 | -1.4 | 99.7 | i | 0.77
33 | CC(=O)Cc1nsc(NC(=O)c2cccs2)n1 | 10.3 | 116.9 | -4.2 | -1.1 | 95.7 | i | 0.95
34 | CCCCCCc1cc2cc(-c3nnc(-c4ccccc4OC)o3)c(=O)oc2cc1O | -21.9 | 83.8 | -5.8 | 2.5 | 108.5 | / | /
35 | Cc1cc2oc(C(=O)NCc3ccncc3)c(C)c2cc1C | / | / | -8.1 | -2.3 | 100.5 | i | 0.99
36 | CCn1c(COc2ccc3c(c2)CCCC3)nnc1SCC(=O)Nc1nccs1 | -24.3 | 94.7 | -0.8 | -1.6 | 211.2 | i | 1.06

4 entries drawn at random from those above, as already listed:
entry | Structure | Insulin prom inh | Insulin prom inh cell count | PKD1 kinase inh | GALR2 agonist | RGS16-Gao | HSV augment | HSV augment primary fold
30 | Cc1cccc(Nc2nnc(SCC(=O)Nc3ncc(C(F)(F)F)cc3Cl)s2)c1C | / | / | 3.9 | -2.2 | 93.1 | i | 1.2
31 | O=C1CCn2nc(-c3ccc(Cl)cc3)cc2N1 | / | / | -8.5 | -2.1 | 105.1 | i | 1.02
33 | CC(=O)Cc1nsc(NC(=O)c2cccs2)n1 | 10.3 | 116.9 | -4.2 | -1.1 | 95.7 | i | 0.95
35 | Cc1cc2oc(C(=O)NCc3ccncc3)c(C)c2cc1C | / | / | -8.1 | -2.3 | 100.5 | i | 0.99

Continuation.
entry | Structure | Insulin prom inh | Insulin prom inh cell count | PKD1 kinase inh | GALR2 agonist | RGS16-Gao | HSV augment | HSV augment primary fold
37 | O=C(O)c1c(F)c(F)cc2ccccc12 | -88.2 | 120.2 | 0.1 | -1.7 | 99.8 | / | /
38 | N#Cc1ccc(OCC(=O)Nc2cc(S(=O)(=O)N3CCOCC3)ccc2N2CCOCC2)cc1 | / | / | / | / | 100.9 | i | 1.01
39 | O=C(Cn1cnc2c(cnn2-c2ccccc2Cl)c1=O)N1CCc2ccccc21 | / | / | -2.7 | -0.4 | 99.2 | i | 1.01
40 | O=C(CCc1ccccc1)NC(NC(=S)Nc1ccc(Cl)cc1)C(Cl)(Cl)Cl (configuration not stated) | / | / | -4.8 | -0.5 | 47.4 | ? | /
41 | C/C(=N\Nc1nc(-c2ccccn2)nc2ccccc12)c1ccc(F)cc1 | / | / | / | / | 98.2 | i | 0.74
42 | COc1cccc2cc(-c3cn4ccc(C)cc4n3)c(=O)oc12 | 28.6 | 75.9 | -9.9 | 0.3 | / | i | 0.99
43 | O=C(OCc1ccccc1F)c1ccc2c(c1)OCCO2 | 12.9 | 67.9 | -3.8 | 2.7 | 97.3 | i | 0.86
44 | NNS(=O)(=O)c1ccc(Sc2ccccn2)c([N+](=O)[O-])c1 | / | / | / | / | 90.8 | i | 1.1
45 | CCC(CC)c1nnc(NC(=O)[C@@H](NC(=O)c2cccc(C)c2)C(C)C)s1 | 9.4 | 141.6 | 10.1 | -1.1 | 104.9 | i | 1.02
46 | COc1ccccc1NC(=O)N1CCN(c2ccc(F)cc2)CC1 | 18.8 | 93.1 | -13.2 | -0.5 | 101.1 | i | 0.893
47 | Cc1ccc(C(=O)N/C(=C/c2ccco2)C(=O)O)cc1 | / | / | -1.1 | 0.3 | 88.7 | i | 1.04
48 | NS(=O)(=O)c1cccc(NS(=O)(=O)c2ccc(/C=C/C(=O)OCC(=O)c3ccccc3)cc2)c1 | / | / | -2.5 | / | 103.8 | i | 0.98
49 | O=S(=O)(Nc1cccc(C(F)(F)F)c1)c1cccnc1 | -14.8 | 102.6 | 1.9 | -0.3 | 109.8 | i | 0.84
50 | Cc1cc(OC(=O)c2ccco2)c(Sc2ccccc2[N+](=O)[O-])c(=O)o1 | -38.9 | 139.4 | 3.3 | / | 108.5 | i | 0.92
51 | COc1ccc(NC(=O)NC23CC4(C)CC(C)(CC(C)(C4)C2)C3)cc1 | -33.3 | 66.3 | 5.7 | -1.5 | 120.3 | i | 0.77
52 | COc1ccc(NC(C)=O)cc1NC(=O)CSc1nc2ncccc2[nH]1 | / | / | 2.9 | -0.4 | 93.7 | i | 1.06
53 | Nc1c(C(=O)Nc2ccccc2)sc2nc3c(c(-c4ccco4)c12)CCC3 | -31.6 | 103.0 | -3.8 | 0.1 | 93.0 | i | 0.923
54 | Cc1cccc(N2CCN(C(=O)C3CCN(S(=O)(=O)c4cccnc4)CC3)CC2)c1C | / | / | -15.3 | -2.1 | 99.3 | i | 0.91
55 | CC(Cc1ccccc1)(NC(=O)CN)c1ccccc1 (configuration not stated) | / | / | / | / | 94.6 | i | 0.83
56 | Cn1c(Cn2cnc3ccccc32)nnc1SCC(=O)CC(=O)Nc1ccccc1 | / | / | -12.1 | 0.4 | 46.5 | i | 0.86
57 | Cc1csc(NC(=O)C2CCCN2C(=O)OCC(C)C)n1 (configuration not stated) | / | / | 7.9 | -2.0 | 70.5 | i | 0.9
58 | CCO[C@@H]1OC(C(=O)NC2CC2)=C[C@H](C)[C@H]1CCCO | / | / | / | / | 103.5 | i | 0.89
59 | O=S(=O)(Cc1cc(Cl)nc(-c2ccncc2)n1)c1ccccc1 | 33.3 | 118.7 | -4.6 | / | 81.2 | i | 0.93
60 | O=C(CNC(=O)c1cccs1)c1ccc([N+](=O)[O-])cc1 | / | / | -10.8 | -2.2 | 98.5 | i | 0.94
61 | O=C(c1ccccc1)N1CCN(c2ccccc2F)CC1 | 18.2 | 19.5 | -5.9 | -1.7 | 98.8 | i | 0.99
62 | COc1ccc(-c2ccc(=O)n(CC(=O)Nc3ccc(C(=O)NC4CC4)cc3)n2)cc1OC | 8.6 | 153.7 | 1.1 | -0.9 | 101.0 | i | 0.93
63 | O=C(COc1ccccc1)NCc1ccc(-n2cccc2)cc1 | -5.3 | 111.9 | -2.5 | / | 107.2 | i | 1.06
64 | CCOC(=O)C1(CCOC)CCN(C(=O)c2ccccc2-c2cccc(C)c2)CC1 | -42.9 | 94.5 | 9.5 | / | 97.3 | i | 0.98
65 | CCc1nnc(NC(=O)CCc2ccc(C)o2)s1 | 36.7 | 103.6 | 1.1 | 0.1 | 165.5 | i | 0.97
66 | CCOC(=O)c1cc(CC)sc1N1C(=O)CC(Sc2ncccc2C(=O)O)C1=O (configuration not stated) | / | / | -2.5 | / | 99.2 | i | 0.99
67 | CCN1CCN(c2cc(=O)n(C3CCCCC3)c(=O)[nH]2)CC1 | / | / | 6.4 | -1.6 | 99.2 | i | 0.89
68 | O=C(c1ccc2c(c1)N(Cc1cccc(Cl)c1)C(=O)c1ccccc1S2(=O)=O)N1CCN(c2ccccn2)CC1 | -66.7 | 79.3 | 3.1 | / | 176.6 | i | 0.77
69 | Cn1cnc2c1c(=O)n(Cc1cccc(Br)c1)c(=O)n2C | 57.1 | 102.2 | -5.5 | -1.6 | 104.3 | i | 0.94
70 | O=C(Nc1cccc(F)c1)N1CC=C(c2ccc(Cl)cc2)CC1 | 11.4 | 213.1 | -4.3 | -0.1 | 101.6 | i | 0.9
71 | O=C(c1c[nH]c2ccc(F)cc2c1=O)N1CCCCCC1 | 52.6 | 106.7 | -16.9 | -0.9 | 94.2 | i | 0.87
72 | CN(C)CCC(O)(c1ccccc1)c1ccccc1 | 30.8 | 88.5 | -2.5 | -1.2 | 141.2 | i | 0.66
73 | OCCC1CN(Cc2ccccc2O)CCN1CCc1ccccc1 (configuration not stated) | / | / | 1.2 | / | 120.7 | i | 0.98
74 | Cc1cccc(-n2c(N)cc(=O)[nH]c2=S)c1 | / | / | -4.3 | -1.8 | 98.3 | i | 0.89
75 | COC(=O)C1CCN(C(=O)c2ccccc2NC(C)=O)CC1 | / | / | -10.3 | -2.0 | 83.8 | i | 0.98

Compound activity from PubChem BioAssay.
